LASV entry inh = Lassa virus entry inhibition; Potency, µM (top dose mostly 37.9 µM), inactives show top-dose activity change, negative = inhibition, actives largely listed as inhibitors; 300,000 tested, 1.2% active; AID 540256; Lassa virus pseudotype entry inhibition, cell reporter; control for the full effect not named in the record; active means well fitted inhibition curve with a large enough effect; inconclusive means small, poorly fitted or top-dose-only effect, or effect the other way; inactive means flat fitted curve, though single readings scatter; tested in HEK293 cells; note: % is set by controls: 0 for no effect and ±100 for the full control effect; nearly all actives have a fitted effect of over 50% in size; luciferase read-out
RE007 growth inh = less growth of the S. pombe RE007 Vpr strain; S. pombe RE007 Vpr strain, BacTiter-Glo ATP luminescence, 24 h; control for the full effect not named in the record; Potency, µM (top dose mostly 92.2 µM), for inactives: top-dose activity change, negative = less growth; 360,000 tested, 0.21% active; AID 651644; active = well fitted falling curve with a large enough effect; inconclusive = small, poorly fitted or top-dose-only effect; inactive = no such curve, though single readings can be large or run the other way;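 note: % is set by controls: 0 for no effect and ±100 for the full control effect; nearly all actives have a fitted effect of over 50% in size; the assay follows cell death caused by Vpr and the record does not say whether a fall means rescue or toxicity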
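Fission yeast RE007 carrying one integrated HIV-1 vpr copy, seeded at OD 0.01 in PMG+AL medium with 23 nL pinned compound. Grown 24 h at 30 degrees; viability read by BacTiter-Glo luminescence after 5 min.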
MARV entry inh = blocks Marburg virus binding to or entry into cells | Marburg virus pseudotyped entry inhibition, cell reporter; control for the full effect not named in the record; about a third of the inactives were read at about 46 µM | Potency, µM (titrated, usually from 37.8 µM), for the others: at the top dose activity change, negative = inhibition, actives largely listed as inhibitors | 300,000 tested, 1.8% active; active = well fitted inhibition curve with a large enough effect; inconclusive = small, poorly fitted or top-dose-only effect, or effect the other way; inactive = flat fitted curve, though single readings scatter; tested in HEK293 cells; about a fifth of its hits are not listed in these tables; note: % is set by controls: 0 for no effect and ±100 for the full control effect; luciferase read-out
SARS PLP yeast = inhibitors of SARS-CoV papain-like protease in yeast; S. cerevisiae expressing SARS-CoV PLpro, growth rescue; control for the full effect not named in the record; Potency, µM (doses to about 32.9 µM), for inactives: top-dose activity, positive = growth rescue; 330,000 tested, 0.19% active; AID 485353; active means well fitted rising curve with a large enough effect; inconclusive means small, poorly fitted or top-dose-only effect; inactive means no such curve, though single readings can be large or run the other way; note: 0% is about no effect; nearly all actives have a fitted effect of over 55% in size; growth read by luminescence after 48 h
2A StopGo = FMDV 2A StopGo reporter, luciferase signal; human cells with a luciferase reporter of 2A StopGo recoding; control for the full effect not named in the record; Potency, µM (top dose mostly 57.9 µM), without a hit: top-dose signal change, negative = less light; 410,000 tested, 1.2% active; active = well fitted falling curve with a large enough effect; inconclusive = small, poorly fitted or top-dose-only effect; inactive = no such curve, though single readings can be large or run the other way; tested in HEK293T cells; note: % is set by controls: 0 for no effect and ±100 for the full control effect; nearly all actives have a fitted effect of over 45% in size; luciferase light after 4 h
Cruzain inh noDet = inhibitors of Trypanosoma cruzi cruzain without detergent; Potency, µM, without a hit: max response, negative = inhibition, actives largely listed as inhibitors; purified cruzain, Z-FR-AMC fluorescence, no detergent; 200,000 tested, 2.3% active; P25779;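 note: plate controls were enzyme without inhibitor for no effect and buffer without enzyme for full effect; nearly all actives have a fitted effect of over 40% in size; top concentration of the series not given in the record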
Target sequence (P25779 123-467 limits assumed): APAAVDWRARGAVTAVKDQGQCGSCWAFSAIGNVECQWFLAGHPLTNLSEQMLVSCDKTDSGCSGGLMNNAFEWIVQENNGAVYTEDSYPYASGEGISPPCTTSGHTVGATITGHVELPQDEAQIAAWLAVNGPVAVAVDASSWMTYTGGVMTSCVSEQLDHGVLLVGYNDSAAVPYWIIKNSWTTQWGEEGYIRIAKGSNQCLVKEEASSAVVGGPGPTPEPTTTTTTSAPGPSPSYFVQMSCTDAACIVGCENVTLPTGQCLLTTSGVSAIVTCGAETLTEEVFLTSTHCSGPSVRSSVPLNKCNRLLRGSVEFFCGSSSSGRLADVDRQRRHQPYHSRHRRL
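Detergent-free condition (0.00005% Triton X-100) in acetate buffer pH 5.5 with DTT. 1.5 nM enzyme and compound were pre-mixed 15 min, then 2 uM Z-FR-AMC substrate added; reaction progress from fluorescence change between first and third reads (60 s).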
NS1 inh = influenza NS1 inhibition. S. cerevisiae slowed by influenza A NS1, growth recovery by OD600. Potency, µM (titrated, usually from 46.1 µM), inactives show top-dose activity, positive = more growth. 270,000 tested, 0.4% active; active means well fitted rising curve with a large enough effect; inconclusive means small, poorly fitted or top-dose-only effect; inactive means no such curve, though single readings can be large or run the other way; note: nearly all actives have a fitted effect of over 50% in size
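A cell-based growth assay was used: compounds that relieve NS1-induced slow growth of budding yeast raise OD600. Assay medium was yeast nitrogen base with ammonium sulphate and -URA supplement, pH 6.0, with 2% galactose.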
Cruzain inh Det = inhibitors of Trypanosoma cruzi cruzain with detergent; purified cruzain, Z-FR-AMC fluorescence, 0.01% Triton; AID 1478; 200,000 tested, 0.43% active; P25779; Potency, µM, for inactives: max response, negative = inhibition, actives largely listed as inhibitors;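 note: plate controls were neutral wells for no effect and buffer without enzyme for full effect; nearly all actives have a fitted effect of over 40% in size; top concentration of the series not given in the record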
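Detergent-containing run (0.01% Triton X-100) in acetate buffer pH 5.5 with 5 mM DTT: enzyme at 1.5 nM final, 15 min compound preincubation at room temperature, then 2 uM Z-FR-AMC substrate. Activity taken as 60 s fluorescence increase at 360/450 nm.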
* = called active by the depositor; & = joins results of further samples; [ ] = remark or other dose. Unless noted, calls come from the whole dose curve; as a rule, active = well fitted curve in the direction sought with a large enough effect; inconclusive = small, poorly fitted or top-dose-only effect, or another doubt; inactive = no such curve, though single readings can be large; an effect the other way counts as inactive or inconclusive. Potency is the fitted concentration of half-maximal effect.

`Cc1ccc(N2C(=O)NC(=O)/C(=C\c3ccsc3)C2=O)cc1C` gave SARS PLP yeast 2%, Cruzain inh noDet -3%, NS1 inh 22% and Cruzain inh Det 3.3%.
O=C(CSc1nnc(-c2cnccn2)n1Cc1ccco1)c1ccc(Cl)c(Cl)c1 was read as LASV entry inh 14%, RE007 growth inh 0%, MARV entry inh -2%, SARS PLP yeast 2%, 2A StopGo -2%, Cruzain inh noDet -6%, NS1 inh inconclusive and Cruzain inh Det -22%.
`O=[N+]([O-])c1ccc2[nH]c3nc4ccccc4nc3c2c1` gave RE007 growth inh 105%, SARS PLP yeast 1%, 2A StopGo 8% and NS1 inh 7%.
Screening O=C(CSc1nncs1)Nc1ccc2c(c1)OCCO2 returned LASV entry inh 3%, RE007 growth inh 7%, MARV entry inh 10%, SARS PLP yeast 10%, 2A StopGo 29%, Cruzain inh noDet -9%, NS1 inh -1% and Cruzain inh Det 3.0%.
Cc1cccc2cc(COC(=O)c3ccccn3)c(=O)[nH]c12 was read as LASV entry inh 1%, RE007 growth inh 10%, MARV entry inh 6%, SARS PLP yeast 9%, 2A StopGo -21%, Cruzain inh noDet -9%, NS1 inh -8% and Cruzain inh Det 1.9%.
O=C(Nc1ccccc1)NC1CCCCC1 was read as LASV entry inh 2%, RE007 growth inh 2%, MARV entry inh 12%, SARS PLP yeast -1%, 2A StopGo 75%[activator], Cruzain inh noDet 0%, NS1 inh -2% and Cruzain inh Det 1.7%.
For COC(=O)C1CCCN1C(=O)COc1ccc(Cl)cc1Br (centres undefined) the results were LASV entry inh 12%, RE007 growth inh -17%, MARV entry inh inconclusive, SARS PLP yeast 6%, 2A StopGo -7%, Cruzain inh noDet 7%, NS1 inh -2% and Cruzain inh Det -0.9%.
For CN1CCN(C(CNS(=O)(=O)c2ccc(F)cc2)c2cccnc2)CC1 (centres undefined) the results were LASV entry inh 8%, RE007 growth inh 2%, MARV entry inh -2%, SARS PLP yeast 11%, 2A StopGo 0%, Cruzain inh noDet 3%, NS1 inh 0% and Cruzain inh Det -1.7%.
Screening O=C(Cn1[nH]c(=O)c2ccccc2c1=O)NC1CCCCCC1 returned LASV entry inh -2%, RE007 growth inh 10%, MARV entry inh 9%, SARS PLP yeast 5%, 2A StopGo 26%, Cruzain inh noDet 14%, NS1 inh 4% and Cruzain inh Det 12%.
For O=C(c1cnccn1)N1CCc2ccccc21 the results were LASV entry inh 17%, RE007 growth inh 9%, MARV entry inh 6%, SARS PLP yeast 3%, 2A StopGo 19%, Cruzain inh noDet -11%, NS1 inh 1% and Cruzain inh Det -1.9%.
For O=C(Nc1ccc(Cl)cc1C(=O)NCc1cccnc1)c1ccco1 the results were LASV entry inh -17%, RE007 growth inh -9%, MARV entry inh -4%, SARS PLP yeast 3%, 2A StopGo -17%, Cruzain inh noDet 12%, NS1 inh inconclusive and Cruzain inh Det 4.0%.
`Cc1noc(C)c1CSc1ccccc1C(=O)Nc1nccs1` gave LASV entry inh -1%, RE007 growth inh 2%, MARV entry inh 14%, SARS PLP yeast 7%, 2A StopGo -21%, Cruzain inh noDet 3%, NS1 inh -8% and Cruzain inh Det 3.0%.
`O=C(NCCSCc1c(F)cccc1Cl)c1ccco1` gave LASV entry inh 2%, RE007 growth inh inconclusive, MARV entry inh 12%[46.1 µM], SARS PLP yeast -20%, 2A StopGo 30%, Cruzain inh noDet 0%, NS1 inh -163% and Cruzain inh Det -1.5%.
`O=[N+]([O-])c1ccc(Cc2nnc(-c3ccccc3Cl)o2)cc1` gave LASV entry inh inconclusive, RE007 growth inh 11%, MARV entry inh -27%[46.1 µM], SARS PLP yeast -6% and 2A StopGo -26%.
COc1ccc(NC(=O)CSC2=Nc3ccccc3N=C(c3ccc(F)cc3)C2)cc1OC was read as LASV entry inh 27%[46.1 µM], 2A StopGo inconclusive, Cruzain inh noDet -6% and Cruzain inh Det -2.1%.
For CCOC(=O)CC1(NC(=O)c2cc(COc3ccc(F)c(F)c3)on2)CCCCC1 the results were RE007 growth inh 22%, SARS PLP yeast -20%, 2A StopGo inconclusive and NS1 inh -39%.
Screening CC(NC(=O)CCNC(=O)c1ccccc1Cl)C1CC2CCC1C2 (centres undefined) returned LASV entry inh -3%, RE007 growth inh 2%, MARV entry inh 0%, SARS PLP yeast -11%, 2A StopGo -23%, Cruzain inh noDet 8%, NS1 inh 13% and Cruzain inh Det -2.4%.
For CCN1C(=O)/C(=C2/C=Cc3cc(C)ccc3N2CC)N(C)C1=S the results were LASV entry inh 0%, RE007 growth inh -13%, MARV entry inh 5%, SARS PLP yeast -8%, 2A StopGo inconclusive, Cruzain inh noDet 0%, NS1 inh -15% and Cruzain inh Det -1.4%.
`Cc1ccc(C(=O)N(Cc2ccco2)c2ccccn2)cc1` gave LASV entry inh inconclusive, MARV entry inh 6%[46.1 µM], 2A StopGo 30%, Cruzain inh noDet 11% and Cruzain inh Det -2.4%.
`CC1CN(S(=O)(=O)c2ccc(C(=O)Nc3nncs3)cc2)CC(C)O1` (centres undefined) gave LASV entry inh 15%, RE007 growth inh -14%, MARV entry inh 0%, SARS PLP yeast 5% and 2A StopGo -15%.
For Cc1ccccc1-n1c(O)c(/C=N/N2CCOCC2)c(=O)[nH]c1=S the results were LASV entry inh 8%, RE007 growth inh 0%, MARV entry inh 32%, SARS PLP yeast -15%, 2A StopGo -6%, Cruzain inh noDet -1%, NS1 inh 4% and Cruzain inh Det -8.3%.
Screening Cc1cc(/C=N/n2cnnc2)c(C)n1-c1cccc(C(=O)O)c1 returned LASV entry inh 10%, RE007 growth inh -1%, MARV entry inh 11%, SARS PLP yeast inconclusive, Cruzain inh noDet -8%, NS1 inh inconclusive and Cruzain inh Det -2.2%.
`COc1ccc(NC(=O)c2cc(Cl)ccc2Cl)c([N+](=O)[O-])c1` gave LASV entry inh 2%, RE007 growth inh 0%, MARV entry inh inconclusive, SARS PLP yeast 0%, 2A StopGo -8%, Cruzain inh noDet -5%, NS1 inh -2% and Cruzain inh Det -4.5%.
COc1ccc(C2C(C(=O)/C=C/c3ccco3)=C(O)C(=O)N2CCN2CCOCC2)cc1 (centres undefined) was read as LASV entry inh 2%, RE007 growth inh -6%, MARV entry inh inconclusive, SARS PLP yeast 10% and 2A StopGo -1%.
`O=[N+]([O-])c1cc(C(F)(F)F)ccc1Sc1nccn1Cc1ccccc1` gave LASV entry inh -1%, RE007 growth inh 1%, MARV entry inh -4%[46.1 µM], SARS PLP yeast -18%, 2A StopGo -16%, Cruzain inh noDet 1%, NS1 inh 6% and Cruzain inh Det -7.9%.
Screening CC1=CC(C)(C)n2c(O)c(N=N)c3c(C)ccc1c32 returned LASV entry inh 7%, RE007 growth inh -22%, MARV entry inh inconclusive, SARS PLP yeast 0%, 2A StopGo -17% and NS1 inh 1%.
CC(=O)Nc1ccc(OCC(O)Cn2cncn2)cc1 (centres undefined) was read as LASV entry inh inconclusive, RE007 growth inh 24%, MARV entry inh 4%, SARS PLP yeast 0%, 2A StopGo -7% and NS1 inh 7%.
O=C(Cc1cn2ccsc2n1)NCc1ccccc1 was read as LASV entry inh 7%, RE007 growth inh 15%, MARV entry inh 0%, SARS PLP yeast 9%, Cruzain inh noDet -15%, NS1 inh -1% and Cruzain inh Det 0.2%.
COCCOc1ccc(C(F)(F)F)cc1NC(=O)CN1C(=O)NC2(CCCc3ccccc32)C1=O (centres undefined) was read as LASV entry inh -25%[46.1 µM], RE007 growth inh -3%, MARV entry inh inconclusive, SARS PLP yeast -2% and 2A StopGo -24%.
For COc1cccc(CN2CCC(C(=O)N3CCN(c4ccccc4F)CC3)CC2)c1OC the results were LASV entry inh -12%, RE007 growth inh 14%, MARV entry inh inconclusive, SARS PLP yeast -5%, 2A StopGo -21%, Cruzain inh noDet 9%, NS1 inh -13% and Cruzain inh Det -3.9%.
COc1cccc(C2CC(c3cccs3)=NN2C(=O)CCC(=O)O)c1OC (centres undefined) was read as LASV entry inh -7%[46.1 µM], RE007 growth inh -3%, MARV entry inh inconclusive, SARS PLP yeast 0%, 2A StopGo -1% and NS1 inh inconclusive.
Screening O=c1[nH]c2ccccc2c(=O)n1-c1cccc(Cl)c1 returned LASV entry inh 9%, RE007 growth inh 6%, MARV entry inh 4%&4%, SARS PLP yeast 4%, 2A StopGo 13%, Cruzain inh noDet -3%, NS1 inh 0% and Cruzain inh Det 1.6%.
`O=C(Nc1cccnc1)c1cccc(F)c1` gave LASV entry inh inconclusive, RE007 growth inh 0%, MARV entry inh inconclusive, SARS PLP yeast 4%, 2A StopGo 2%, Cruzain inh noDet -7%, NS1 inh 7% and Cruzain inh Det 2.4%.
`Cc1ccc(/C=C/C(=O)NCc2cccs2)o1` gave LASV entry inh inconclusive, RE007 growth inh -11%, MARV entry inh -13%, SARS PLP yeast -1% and 2A StopGo 55%[activator].
For Cc1cccc(C)c1NC(=O)CSc1ncnc2nc[nH]c12 the results were LASV entry inh 5%, RE007 growth inh -11%, MARV entry inh 13%, SARS PLP yeast 1%, Cruzain inh noDet -2%, NS1 inh -16% and Cruzain inh Det -2.2%.
Cc1ccc(NC(=O)CN(C)S(=O)(=O)c2cccc3nsnc23)c(C)c1 was read as LASV entry inh -1%[46.1 µM], MARV entry inh -1%[46.1 µM], 2A StopGo -4%, Cruzain inh noDet -11% and Cruzain inh Det -2.6%.
For COc1ccc(Cl)cc1NC(=O)Cn1nc(-c2ccc(C)cc2)n(C)c1=S the results were LASV entry inh -16%, RE007 growth inh -12%, MARV entry inh -12%, SARS PLP yeast -4%, 2A StopGo inconclusive, Cruzain inh noDet inconclusive, NS1 inh 24% and Cruzain inh Det 0.9%.
Screening Cc1ccc(S(=O)(=O)Nc2cccc3cccnc23)cc1 returned LASV entry inh inconclusive, RE007 growth inh 28%, MARV entry inh inconclusive, SARS PLP yeast -10%, 2A StopGo 28µM*, Cruzain inh noDet 13%, NS1 inh -58% and Cruzain inh Det -0.1%.
